Compound activity: PubChem BioAssay, National Center for Advancing Translational Sciences (NCATS)
Six1-Eya2 inh = blocks human Six1 binding to Eya2; actives 0.56% (n = 360,000); activity change, % (no concentration beside the values); AlphaScreen GST-Six1/His-Eya2 binding, biochemical; stronger effect = lower value; control for the full effect not named in the record; Q15475+O00167; in the data active = activity change below about -65%; inconclusive = about -30% to -65%; inactive = above about -30%; also: % is scaled to controls: 0 for no effect and ±100 for the full control effect; compound concentration not given in the record
Target sequence (O00167 whole entry, looked up): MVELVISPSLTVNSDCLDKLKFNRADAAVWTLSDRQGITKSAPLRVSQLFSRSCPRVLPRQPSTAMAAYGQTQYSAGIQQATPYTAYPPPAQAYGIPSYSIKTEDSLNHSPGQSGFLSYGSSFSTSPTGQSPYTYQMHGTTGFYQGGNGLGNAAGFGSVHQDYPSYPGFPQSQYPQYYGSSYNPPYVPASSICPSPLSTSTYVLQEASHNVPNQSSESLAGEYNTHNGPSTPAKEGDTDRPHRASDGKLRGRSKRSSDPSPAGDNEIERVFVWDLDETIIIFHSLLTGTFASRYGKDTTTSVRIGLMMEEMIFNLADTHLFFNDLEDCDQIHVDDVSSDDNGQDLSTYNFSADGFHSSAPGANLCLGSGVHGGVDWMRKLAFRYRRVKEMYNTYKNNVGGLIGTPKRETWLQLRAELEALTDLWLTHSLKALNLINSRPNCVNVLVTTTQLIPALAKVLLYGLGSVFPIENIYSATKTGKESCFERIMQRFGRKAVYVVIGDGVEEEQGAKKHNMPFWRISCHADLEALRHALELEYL
Target sequence (Q15475 whole entry, looked up): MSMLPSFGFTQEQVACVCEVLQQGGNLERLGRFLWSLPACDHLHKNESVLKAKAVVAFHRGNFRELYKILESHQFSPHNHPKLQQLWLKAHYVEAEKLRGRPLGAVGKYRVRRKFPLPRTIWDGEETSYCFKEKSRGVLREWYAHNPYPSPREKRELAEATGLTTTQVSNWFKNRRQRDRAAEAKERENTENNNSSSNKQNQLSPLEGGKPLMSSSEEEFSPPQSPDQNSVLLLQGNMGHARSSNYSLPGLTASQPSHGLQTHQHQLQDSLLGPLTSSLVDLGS
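AlphaScreen with GST-Six1 and His-Eya2 (5X mix: 250 nM and 500 nM), glutathione donor and nickel acceptor beads; buffer 50 mM Tris pH 8.0, 300 mM NaCl, 1 mM TCEP; 1 h at 37 C in the dark.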
PINK1 modulator = changes PINK1 expression. PINK1 immunofluorescence, high-content cytometry, 24 h. Potency, µM (titrated, usually from 76.6 µM), inactives show at the highest dose activation (PINK1 increase), most hits filed as activators. AID 624263. actives 0.2% (n = 410,000); active = well fitted activation curve with a large enough effect; inconclusive = small, poorly fitted or top-dose-only effect; inactive = flat fitted curve, though single readings scatter; cell line not stated here;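 also: potency is read from the fitted curve at half-maximal effect; % of control where 0% means no effect; nearly all actives have a fitted effect of over 65% in size; a mitochondrial uncoupler was the plate control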
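Cells are seeded, rested 12 hours, then given compound at five concentrations or DMSO for 24 hours. After fixation, blocking and antibody staining, PINK1 amount and mitochondrial localization are scored; CCCP serves as control.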
D2 ag = agonists of human D2 dopamine receptor (beta-arrestin); P14416; DiscoveRx PathHunter D2 beta-arrestin, luminescence, 90 min; 100% = 57 uM dopamine signal; activation, % (concentration not given with the values); actives 0.084% (n = 360,000); in the data active = activation above about 40%; inconclusive = about 15% to 40%; inactive = below about 15%; also: compound concentration not given in the record; the text of the record calls up to 30% inactive
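Agonist mode: compounds alone added to overnight-plated D2 PathHunter cells for 90 min at 37 C, with 57 uM final dopamine (EC100) defining full response. Beta-arrestin recruitment detected by chemiluminescent reagent, read after 1 h at ambient temperature.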
TRPML1 ag = agonists of human TRPML1 channel; Q9GZU1; TRPML1-expressing cells, Ca2+ dye fluorescence, FDSS; host cell line not named in the record; reference of the full effect not given here; activation, % (no concentration beside the values); actives 0.12% (n = 410,000); AID 624414; in the data active = activation above about 50%; inconclusive = about 30% to 50%; inactive = below about 30%; also: 0% is about no effect; the text of the record puts the active cut at 80%
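Cells: TRPML1-DL, 1X Tet inducer, ~16 h at 37 degrees C/5% CO2. Dye: ABD Ca8 no-wash + quencher, 45-90 min RT. Read: 10 s baseline, compound add, 110 s agonist phase; 54-4 EC80 (4uM final), 110 s antagonist phase.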
CtBP-E1A blk = CtBP/E1A binding inhibition; AlphaScreen GST-E1A/His-CtBP binding, 1536-well; stronger effect = lower value; control for the full effect not named in the record; activity change, % (no concentration beside the values); actives 0.49% (n = 340,000); AID 651724; in the data active means activity change below about -65%; inconclusive means about -30% to -65%; inactive means above about -30%; also: % is scaled to controls: 0 for no effect and ±100 for the full control effect; compound concentration not given in the record
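In 5 uL wells, 23 nL compound meets equimolar GST-E1A and His-CtBP (5X stock 125 nM each) for 2 h, 37 °C. Beads (5X, 50 ug/mL) then 1 h, 37 °C, dark.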
TRPML1 inh = human mucolipin-1 channel inhibition | Q9GZU1 | TRPML1-inducible cells, Ca2+ dye fluorescence, FDSS; stronger effect = lower value; inhibition of EC80 agonist-evoked calcium signal | activity change, negative = inhibition, % (concentration not given with the values) | actives 0.02% (n = 390,000) | AID 624415; in the data active means activity change below about -50%; inconclusive means about -30% to -50%; inactive means above about -30%;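 also: stimulus is agonist 54-4 at its EC80 concentration; % is scaled to controls: 0 for no effect and ±100 for the full control effect; compound concentration not given in the record; the text of the record puts the active cut at -80%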
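Tet-induced TRPML1-DL cells loaded with Ca8 no-wash calcium dye were read kinetically on FDSS. Compound addition was followed by EC80 agonist 54-4 (4 uM final); inhibition was read over 110 s.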
* = called active by the depositor; ? = inconclusive; · = no result given; & = joins results of further samples; [ ] = dose if it differs, or a comment.

Fields: Six1-Eya2 inh	PINK1 modulator	D2 ag	TRPML1 ag	CtBP-E1A blk	TRPML1 inh
- CCN(CC)S(=O)(=O)c1ccc(C(=O)Nc2nc3ccc(Cl)cc3s2)cc1
 : ·	-0.4%	·	-1.1	·	35
- Cc1cccc(NC(=S)NCCC(c2ccccc2)c2ccccc2)c1
 : -16	7.5%	-1.8	2.2	-17	9
- CCc1ccc(NC2Nc3cc(C)nn3S2)cc1 (stereo not drawn)
 : -8	-2.5%	-4.3	-0.7	-3	25
- CCCN(C(=O)CSCc1ccc(C)cc1)c1c(N)n(Cc2ccccc2)c(=O)[nH]c1=O
 : 1	-0.3%	-1.8	-0.4	-21	32
- CC1(C(=O)NCc2ccc(F)c(F)c2)Cc2c(-c3cccc(C(N)=O)c3)ccnc2O1 (stereo not drawn)
 : 0	12%	1.6	-0.5	-3	·
- CCN(CCNC(=O)C1CCCN(Cc2nc(-c3ccc(OC)cc3)oc2C)C1)c1ccccc1 (stereo not drawn)
 : -24	-5.6%[38.3 µM]	-2.8	-0.9	-24	4
- O=C(CN1C(=O)c2ccccc2C1=O)NCc1ccc(N2CCOCC2)cc1
 : -1	1.6%	-3.4	-0.7	·	-9
- O=c1c(O[C@H]2O[C@@H](CO)[C@H](O)[C@@H](O)[C@@H]2O)c(-c2ccc(O)cc2)oc2cc(O)cc(O)c12
 : -7	1.4%	0.8	-0.7	·	-10
- CC1CCC(=NNC(=O)c2ccccc2-n2cccc2)CC1 (stereo not drawn)
 : 6	3.6%	1.0	1.9	0	2
- COC(=O)c1cc(=O)c2c(C)nc(C(Cl)(Cl)Cl)nc2[nH]1
 : -6	-0.2%	5.3	3.6	6	-2
- O=C(NCCc1nc2ccccc2[nH]1)C1CCC(=O)N(CCc2cccc(F)c2)C1 (stereo not drawn)
 : 1	0.4%	2.3	0.0	-3	40
- CCOc1ccc(N2C(=O)CC(N3CCC(NC(=O)Nc4ccccc4)CC3)C2=O)cc1 (stereo not drawn)
 : -6	-2.4%	-2.8	0.8	-3	1
- CCCn1c(=O)c(-c2nc3ccccc3[nH]2)c(O)c2ccccc21
 : 9	3.2%	3.1	-0.5	-19	-12
- Cc1ccc(C)c(S(=O)(=O)N2CCN(c3ncnc4sccc34)CC2)c1
 : 2	0.1%	-0.2	0.2	-12	-23
- O=C(c1ccc(NC2=NC3CS(=O)(=O)CC3S2)cc1)N1CCN(c2ccccc2)CC1 (stereo not drawn)
 : 3	2.2%	-6.1	-0.2	3	8
- Cc1cc(C)n(CC(=O)NNC(=O)CCNC(=O)c2ccccc2Cl)n1
 : 15	-0.5%	-0.2	0.5	-2	9
- Cc1nc(N=Nc2ccc(O)cc2)n[nH]1
 : -2	-0.7%	-3.6	-0.7	·	2
- O=C(COC(=O)COc1ccc(Cl)cc1)NC1CCS(=O)(=O)C1 (stereo not drawn)
 : 6	1.8%	-2.0	-0.9	·	-21
- Cc1cc([N+](=O)[O-])ccc1NC(=O)CCC(=O)N1CCCCCC1
 : -1	-0.3%	0.0	1.9	3	-19
- CCCCc1cc(=O)oc2cc(C)cc(OCc3nn[nH]n3)c12
 : -22	-0.9%	-2.3	0.2	-11	-11
- Cc1cc(Br)ccc1NC(=O)CNC(=O)CN(C)Cc1nc2ccccc2c(=O)[nH]1
 : 3	-1.0%[38.3 µM]	-0.7	0.3	9	-6
- O=C(CN1CCN(S(=O)(=O)N2CCCCC2)CC1)Nc1cc(Cl)ccc1Cl
 : -8	14%	-1.4	1.1	1	2
- Cn1cnc([N+](=O)[O-])c1Sc1nc(N)nc2c1ncn2C1CC(O)C(CO)O1 (stereo not drawn)
 : -1	-5.1%	-0.2	0.0	4	3
- Cc1c(Cc2ccccc2)c(=O)oc2cc(OCC(=O)c3ccccc3)ccc12
 : -7	-0.7%	-4.0	0.9	5	15
- Cc1cc(NC(=O)COC(=O)c2cc(S(=O)(=O)N(C)C)ccc2Cl)no1
 : 7	1.1%	4.0	1.9	-3	14
- COc1ccccc1OCC(=O)O
 : 7&24	3.8%	0.4&-1.6	-0.8&0.2	5&47	-6&1
- Cc1cccc(N(Cc2cc(=O)[nH]c3ccccc23)C(=O)C(C)C)c1
 : -3	2.2%	-3.7	·	4	·
- Cc1ccc(N=C2S/C(=C/c3cccc(OCC(=O)O)c3)C(=O)N2C)cc1C
 : ?	2.7%	-3.7	-0.9	-10	-1
- CNc1c(NC(=O)c2ccc3c(c2)OCO3)c(=O)oc2ccccc12
 : 13	-1.2%	4.2	-0.1	-1	-4
- CC(=O)N1N=C(c2ccc(Cl)cc2)OC12CCCC2
 : 1	-0.1%	-3.6	0.1	·	-7

Some of the entries so far, as tab-separated lines.
SMILES	Six1-Eya2 inh	PINK1 modulator	D2 ag	TRPML1 ag	CtBP-E1A blk	TRPML1 inh
CCCCc1cc(=O)oc2cc(C)cc(OCc3nn[nH]n3)c12	-22	-0.9%	-2.3	0.2	-11	-11
Cc1cc(Br)ccc1NC(=O)CNC(=O)CN(C)Cc1nc2ccccc2c(=O)[nH]1	3	-1.0%[38.3 µM]	-0.7	0.3	9	-6
O=C(CN1CCN(S(=O)(=O)N2CCCCC2)CC1)Nc1cc(Cl)ccc1Cl	-8	14%	-1.4	1.1	1	2
Cn1cnc([N+](=O)[O-])c1Sc1nc(N)nc2c1ncn2C1CC(O)C(CO)O1 (stereo not drawn)	-1	-5.1%	-0.2	0.0	4	3

(more compounds)
Fields: Six1-Eya2 inh	PINK1 modulator	D2 ag	TRPML1 ag	CtBP-E1A blk	TRPML1 inh
- O=C(CCS(=O)(=O)c1cc(Br)cc2c1N(C(=O)C1CC1)CC2)Nc1ccc(Br)cc1F
 : ·	4.9%	·	-0.3	·	-11
- Cc1ccc(NC(=O)c2cc(-c3ccco3)nc3ccccc23)cc1S(=O)(=O)N1CCOCC1
 : -20	3.1%	-2.9	-0.5	-1	1
- Cc1ccc(S(=O)(=O)/N=C(/c2ccccc2)N(C)c2ccc(O)cc2)cc1
 : -1	-0.5%	-4.5	1.7	·	-6
- O=c1c2c3c(sc2nc2n1CCC2)CCCCC3
 : 0	-1.5%	-1.2	-0.3	7	5
- COCCNC(=O)C1(C)CCCN(Cc2cccc(F)c2)C1 (stereo not drawn)
 : 0	0.8%	-7.4	0.1	-3	·
- C=CCN(c1ccc(C(=O)Nc2cc(C)cc(C)c2)cc1)S(C)(=O)=O
 : 9	1.2%	-0.8	0.7	4	2
- CCOc1ccc(NC(=O)CN2C(=O)CSc3ccc(S(=O)(=O)N4CCOCC4)cc32)cc1
 : 2	1.5%	5.9	0.5	5	4
- Cc1ccc(C(=O)N/C(=C\C=C\c2ccccc2)C(=O)NCc2ccco2)cc1
 : -14	-0.5%	-0.7	2.5	0	-3
- O=C(Nc1ccc(F)cc1)C(c1ccccc1)N1CCN(S(=O)(=O)c2c(F)cccc2F)CC1 (stereo not drawn)
 : 2	2.2%	-1.1	2.5	10	12
- COC(=O)[C@]1(Cc2ccccc2)N[C@H](CN(C)C(=O)c2ccc(C)cc2)[C@@H]2C(=O)N(Cc3ccccc3)C(=O)[C@@H]21
 : 1	-0.4%	-1.2	1.5	1	26
- COC(=O)CCN(C)CCC(=O)OC
 : -1	7.1%	-2.2	0.4	-8	-5
- CN(Cc1ccccc1)C(=O)C(C(=O)c1ccc(F)cc1)n1cc(Cl)ccc1=O (stereo not drawn)
 : -3	0.1%	1.1	-0.3	8	10
- CCN(CC(=O)NCc1cccs1)C(=O)COc1ccc(C(N)=O)cc1
 : 4	-0.3%	4.5	0.5	8	12
- CC(C)CNC(=O)c1coc(=O)c(Br)c1
 : -1	·	1.0	-0.3	-11	5
- COc1cc(C2C(C#N)=C(N)Oc3cc(C)oc(=O)c32)cc2c1OCO2 (stereo not drawn)
 : -11	4.3%	-2.6	-1.0	-3	6
- CS(=O)(=O)N1c2ccccc2[C@@]2(Br)C[C@H]3C(=O)N[C@@H](Cc4ccccc4)C(=O)N3[C@@H]12
 : -4	0.1%	-0.9	1.9	1	-10
- C=CCNC(=O)c1cc(Cl)ccn1
 : 2	0.6%	4.4	0.3	-1	-13
- O=C(CSc1nnc(-c2ccncc2)n1-c1ccccc1)NC1CC1
 : 7	1.2%	-2.5	-0.1	6	-4
- Cc1nnc(NC(=O)C(C)Sc2nnc(CNC(=O)c3ccccc3F)n2C)s1 (stereo not drawn)
 : 3	-1.3%	-3.4	-0.7	0	-8
- CN(CC(=O)N1CCc2ccccc21)S(=O)(=O)c1ccc(Br)s1
 : -4	7.5%	-2.7	2.0	6	13
- COc1cccc(/C=C2\CCC(C3CCCC3)C2=O)c1 (stereo not drawn)
 : 9	2.8%	0.9	-0.8	6	4
- C=CCNc1nnc(Cc2ccc(F)cc2)c(=O)[nH]1
 : 2	-2.1%	-3.3	-0.7	6	25
- CCN(CC)S(=O)(=O)c1ccc(C)c(NC(=O)COC(=O)C=C(C)C)c1
 : -10	1.3%	-1.3	-1.0	·	2
- Cc1cccc2c(N=Nc3ccc(S(=O)(=O)Nc4cccc(Cl)c4)cc3[N+](=O)[O-])c(O)[nH]c12
 : -7	-1.3%	-1.0	-0.9	-9	-2
- COc1ccc([C@H]2C[C@H](O)[C@@H](n3cc(C4CC4)nn3)CN2C(=O)c2cccs2)cc1
 : -4	3.1%	-3.8	-0.9	1	1
- COc1ccc(CCNC(=O)c2ccc3c(c2)nc2n3CCCCC2)cc1OC
 : ·	2.3%	·	0.5	·	-13
- Oc1cccc(C=NCc2ccccc2)c1
 : 5	1.1%	1.2	-0.3	2	-1
- CCOC(=O)C1CCCN(S(=O)(=O)CCNC(=O)c2cccc(OC)c2)C1 (stereo not drawn)
 : 2	10%	-1.6	-0.6	1	-8
- COc1ccc(N2CCN(C(CNC(=O)C(C)C)c3ccc4c(c3)OCO4)CC2)cc1 (stereo not drawn)
 : 9	0.0%	1.2	0.5	·	28
- Cc1ccc2nc3c(nc2c1C)C(O)=C3O
 : -9	1.9%	-2.1	-0.3	-11	-3
- Cc1cc(C)c(CN2CCN(C(=O)Cn3ccc(NC(=O)OCc4ccccc4)nc3=O)CC2)c(C)c1
 : -1	1.9%	6.3	-0.2	0	-11
- Cc1nn(CC(=O)Nc2ccc3c(c2)nc(CCN2CCCCC2)n3C)c(=O)c2ccccc12
 : -11	-1.8%[38.3 µM]	-1.0	3.3	-7	-11
- Cc1cccc(CCNCc2c(C(=O)O)c(C)n(-c3ccccc3)c2C)c1
 : -13	0.9%	1.8	-0.3	·	0
- Cc1c(C(=O)NCCc2ccccc2)oc2ccccc12
 : 12	0.3%	-2.1	3.8	6	1
- C=CCC(O)(CC=C)CNC(=O)c1ccc(OC)c(OC2CCN(C(C)=O)CC2)c1
 : 1	0.6%	-2.1	-0.4	11	7
- C/C(=N\NC(=S)Nc1cc(S(=O)(=O)N2CCOCC2)ccc1Cl)c1ccc(N2CCOCC2)cc1
 : -1	-1.9%	5.3	0.6	-21	42
- CC1CCCN(c2ccc(C(=O)Nc3ccc4c(c3)OCO4)cc2[N+](=O)[O-])C1 (stereo not drawn)
 : ?	8.1%	-1.0	2.2	?	-9
- Cc1ccc2c(c1)cc(C(=O)Nc1ccccc1C)n2C
 : ·	6.7%	·	0.6	·	-8
